# Assay outcomes as filed in PubChem.
# Vaccinia stage: blocks a specific stage of Vaccinia orthopoxvirus infection, primary screen, cell-based, single point. activity change (mCherry), % (no concentration beside the values). 89,000 tested, 0.01% active. Vaccinia-infected cells, mCherry/Venus stage reporter fluorescence; hits give low values; some inactives read as strong as hits;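 active means mCherry past -33% and 40 or more points under the early reporter, replicates agreeing; inconclusive means past -33% without that gap or agreement; tested in A549 cells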;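 further: scaled between vehicle wells and reference inhibitor wells; 23 nL library stock went into each well; one replicate is shown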
# Vaccinia stage Venus: also measured in Vaccinia stage; calls as there; activity change (Venus), %; measured here: Venus reporter, other viral stage;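 negative = less Venus signal; first of two replicates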
# An asterisk follows results filed as active; u = inconclusive; x = no result given; & = joins results of further samples. An excerpt, so the mix of outcomes need not match the whole.
SMILES,Vaccinia stage,Vaccinia stage Venus
C[C@@H]1CCCCO[C@H](CN(C)C(=O)Nc2ccc(F)cc2)[C@@H](C)CN([C@H](C)CO)C(=O)c2cc(NC(=O)Nc3cccc4ccccc34)ccc2O1,5,-7
C[C@@H]1CN([C@H](C)CO)C(=O)c2cc(NC(=O)c3ccncc3)ccc2O[C@H]1CN(C)C(=O)Nc1cccc2ccccc12,19,14
Cc1ccc(S(=O)(=O)N(C)C[C@@H]2Oc3ccc(NS(=O)(=O)c4ccc(Cl)cc4)cc3C(=O)N([C@H](C)CO)C[C@H]2C)cc1,11,5
C[C@H](CO)N1C[C@H](C)[C@H](CN(C)C(=O)Cc2ccccc2)OCCCC[C@H](C)Oc2ccc(NC(=O)Nc3ccc(C(F)(F)F)cc3)cc2C1=O,-11,-6
Cc1ccccc1-c1cnc2c(c1)C(=O)N([C@H](C)CO)C[C@@H](C)[C@H](CN(C)C(=O)c1cccnc1)O2,-2,-1
N#C[C@@H]1[C@@H](c2ccccc2)[C@@H](CO)N1S(=O)(=O)c1ccc(-c2ccccc2)cc1,-21,-14
CC(=O)N1CC2(C1)[C@@H](c1ccccc1)[C@@H](CO)N2C(=O)c1cnccn1,3,1
C/C=C/c1ccc([C@H]2[C@@H](CO)N3C(=O)CN(C(=O)c4cccc(F)c4)C[C@@H]23)cc1,1,-2
C[C@H](CO)N1C[C@H](C)[C@@H](CN(C)C(=O)C2CCC2)Oc2cc(C#CC3CC3)ccc2S1(=O)=O,-17,-12
C[C@@H]1CN([C@@H](C)CO)C(=O)Cc2cc(NS(=O)(=O)c3cn(C)cn3)ccc2O[C@@H]1CN(C)Cc1ccc(-c2ccccc2)cc1,-18,-13
CCCN1C[C@@H](C)[C@@H](OC)CN(C)C(=O)c2cc(NS(=O)(=O)CC)ccc2OC[C@@H]1C,-8,-7
C[C@@H]1CCCCO[C@@H](CN(C)C(=O)CCC(F)(F)F)[C@H](C)CN([C@H](C)CO)C(=O)c2cc(NS(=O)(=O)c3cn(C)cn3)ccc2O1,18,11
C[C@@H]1CCCCO[C@H](CN(C)C(=O)Nc2ccccc2)[C@@H](C)CN([C@H](C)CO)C(=O)c2cc(NC(=O)Cc3ccccc3)ccc2O1,7,6
N#C[C@H]1[C@H](c2ccccc2C2=CCCCC2)[C@H](CO)N1C(=O)Cc1ccncc1,3,1
COc1ccc2c3c([nH]c2c1)[C@@H](CO)N(C(=O)c1cccnc1)CC31CN(C(=O)c2cccnc2)C1,30,13
COc1cccc(NC(=O)N2C[C@@H](O)COC[C@@H]3O[C@@H](CC(=O)NC4CCC4)CC[C@H]32)c1,8,12
O=C(c1ccccn1)N1CC(=O)N2[C@H](CO)[C@@H](c3ccc(C#CCc4ccccc4)cc3)[C@H]2C1,18,5
C[C@H]1CN([C@@H](C)CO)C(=O)CCCn2nncc2CO[C@@H]1CN(C)Cc1ccccc1C(=O)O,-3,4
C[C@@H]1CN([C@@H](C)CO)S(=O)(=O)c2ccc(Br)cc2O[C@@H]1CN(C)C,49,19
CC(=O)N1[C@H](CNC(=O)CN(C)C)[C@H](c2ccc(C3=CCCCC3)cc2)[C@@H]1CO,-11,-4
C[C@H]1CN([C@@H](C)CO)C(=O)Cc2cc(NC(=O)Cn3cnnn3)ccc2O[C@@H]1CN(C)S(=O)(=O)c1ccc(Cl)cc1,7,1
C[C@H](CO)N1C[C@H](C)[C@H](CN(C)Cc2ccc(Cl)c(Cl)c2)Oc2ccc(NS(=O)(=O)c3cccs3)cc2CC1=O,-22,-21
O=C(C[C@@H]1CC[C@@H]2[C@H](COC[C@@H](O)CN2C(=O)c2ccncc2)O1)Nc1ccc(-c2ccccc2)cc1,-8,8
CC(=O)N(C)C[C@H]1Oc2cc(C#CCC3CCCC3)ccc2S(=O)(=O)N([C@@H](C)CO)C[C@H]1C,-13,-15

# Filtered by structure, the entries above with nitrogen in an aromatic ring
SMILES,Vaccinia stage,Vaccinia stage Venus
C[C@@H]1CN([C@H](C)CO)C(=O)c2cc(NC(=O)c3ccncc3)ccc2O[C@H]1CN(C)C(=O)Nc1cccc2ccccc12,19,14
Cc1ccccc1-c1cnc2c(c1)C(=O)N([C@H](C)CO)C[C@@H](C)[C@H](CN(C)C(=O)c1cccnc1)O2,-2,-1
CC(=O)N1CC2(C1)[C@@H](c1ccccc1)[C@@H](CO)N2C(=O)c1cnccn1,3,1
C[C@@H]1CN([C@@H](C)CO)C(=O)Cc2cc(NS(=O)(=O)c3cn(C)cn3)ccc2O[C@@H]1CN(C)Cc1ccc(-c2ccccc2)cc1,-18,-13
C[C@@H]1CCCCO[C@@H](CN(C)C(=O)CCC(F)(F)F)[C@H](C)CN([C@H](C)CO)C(=O)c2cc(NS(=O)(=O)c3cn(C)cn3)ccc2O1,18,11
N#C[C@H]1[C@H](c2ccccc2C2=CCCCC2)[C@H](CO)N1C(=O)Cc1ccncc1,3,1
COc1ccc2c3c([nH]c2c1)[C@@H](CO)N(C(=O)c1cccnc1)CC31CN(C(=O)c2cccnc2)C1,30,13
O=C(c1ccccn1)N1CC(=O)N2[C@H](CO)[C@@H](c3ccc(C#CCc4ccccc4)cc3)[C@H]2C1,18,5
C[C@H]1CN([C@@H](C)CO)C(=O)CCCn2nncc2CO[C@@H]1CN(C)Cc1ccccc1C(=O)O,-3,4
C[C@H]1CN([C@@H](C)CO)C(=O)Cc2cc(NC(=O)Cn3cnnn3)ccc2O[C@@H]1CN(C)S(=O)(=O)c1ccc(Cl)cc1,7,1
O=C(C[C@@H]1CC[C@@H]2[C@H](COC[C@@H](O)CN2C(=O)c2ccncc2)O1)Nc1ccc(-c2ccccc2)cc1,-8,8

# (list continues)
SMILES,Vaccinia stage,Vaccinia stage Venus
C[C@@H]1CCCCO[C@H](CN(C)C(=O)Nc2ccccc2)[C@H](C)CN([C@@H](C)CO)C(=O)c2cc(NC(=O)Nc3ccccc3)ccc2O1,16,9
Cc1ccc(S(=O)(=O)N(C)C[C@H]2Oc3c(NC(=O)NC(C)C)cccc3C(=O)N([C@H](C)CO)C[C@@H]2C)cc1,13,-1
Cc1ccc(S(=O)(=O)Nc2ccc3c(c2)C(=O)N([C@H](C)CO)C[C@H](C)[C@@H](CN(C)S(=O)(=O)c2ccc(F)cc2)O3)cc1,16,8
C[C@@H]1CN([C@H](C)CO)C(=O)c2cc(NS(=O)(=O)c3cccs3)ccc2O[C@H]1CN(C)CC1CCCCC1,-14,-19
C[C@@H]1CCCCO[C@@H](CN(C)CC2CC2)[C@H](C)CN([C@H](C)CO)C(=O)c2cc(NC(=O)Nc3ccc4c(c3)OCO4)ccc2O1,-8,0
Cc1noc(C)c1S(=O)(=O)Nc1ccc2c(c1)C(=O)N([C@H](C)CO)C[C@@H](C)[C@H](CN(C)S(=O)(=O)c1cccs1)O2,-20,-9
Cc1ccccc1-c1ccc([C@@H]2[C@@H](CO)N3C(=O)CN(C(=O)c4ccncc4)C[C@@H]23)cc1,-3,3
CC(C)NC(=O)N(C)C[C@@H]1Oc2c(NC(=O)CCCCCC(=O)Nc3ccccc3N)cccc2C(=O)N([C@H](C)CO)C[C@@H]1C,0,13
COc1ccc(NC(=O)N(C)C[C@H]2OCCCC[C@H](C)Oc3ccc(NC(=O)NC(C)C)cc3C(=O)N([C@H](C)CO)C[C@@H]2C)cc1,8,13
COc1ccccc1NC(=O)N[C@@H]1C=C[C@H](CC(=O)NCc2ccc(Cl)c(Cl)c2)O[C@H]1CO,-21,-12
N#C[C@H]1[C@H](c2ccccc2C2=CCCCC2)[C@@H](CO)N1S(=O)(=O)c1cccc(F)c1,u,x
C[C@@H]1CN([C@@H](C)CO)C(=O)c2cc(N(C)C)ccc2O[C@@H](C)CCCCO[C@@H]1CN(C)S(C)(=O)=O,21,23
COc1ccc(-c2ccc3n(c2=O)C[C@@H]2[C@@H](CO)[C@H](C(=O)N(C)C)[C@H]3N2Cc2cccnc2)cc1,-5,-1
Cc1ccc(S(=O)(=O)N2C[C@@H]3N[C@H](C2)C3c2ccc(-c3cccc(C#N)c3)cc2)cc1 (stereo partly drawn),u,-8
CCC(=O)N1[C@H](CNC(C)=O)[C@@H](c2ccc(-c3cccc(F)c3)cc2)[C@@H]1CO,10,12
COCC(=O)Nc1ccc2c(c1)C(=O)N(C)C[C@@H](OC)[C@H](C)CN(CC1CCCCC1)[C@@H](C)CO2,-16,-9
O=S(=O)(NC[C@@H]1[C@H](c2ccccc2)[C@H](CO)N1CC1CC1)c1ccccc1,3,3
COc1ccc(S(=O)(=O)Nc2ccc3c(c2)CC(=O)N([C@H](C)CO)C[C@@H](C)[C@@H](CN(C)C(=O)NC2CCCCC2)O3)cc1,37,20
C[C@H]1CN([C@@H](C)CO)C(=O)CCCn2cc(nn2)CO[C@@H]1CN(C)Cc1ccc(O)cc1,7,-2
CC(C)CC#Cc1ccc([C@H]2[C@@H](CO)N3C(=O)CN(C(=O)c4ccc5c(c4)OCO5)C[C@@H]23)cc1,-7,-9
CC=Cc1ccc2n(c1=O)C[C@@H]1[C@@H](CO)[C@H](C(=O)N3CCc4ccccc4C3)[C@H]2N1Cc1cocn1 (mixture of isomers),21,6
O=C(Nc1cc(F)ccc1F)N1C[C@H]2[C@@H](c3ccccc31)[C@@H](CO)N2C(=O)c1ccccc1,4,8
CC(C)NC(=O)N(C)C[C@H]1Oc2ccc(NC(=O)Nc3ccc(F)cc3)cc2C(=O)N([C@H](C)CO)C[C@@H]1C,6,0
O=C(C[C@@H]1C[C@@H]2c3cc(NC(=O)c4ccc5c(c4)OCO5)ccc3O[C@@H]2[C@H](CO)O1)NCC1CC1,9,6
CC=Cc1ccc2n(c1=O)C[C@H]1[C@H](CO)[C@@H](C(=O)N3CCc4ccccc4C3)N(C(=O)CC)[C@@H]21 (mixture of isomers),-4,-3
Cc1ccccc1S(=O)(=O)N1[C@H](CO)[C@@H](c2ccc(C#CC3CC3)cc2)[C@@H]1C#N,-1,-1
CCC(=O)Nc1ccc2c(c1)OC[C@@H](C)N(C(=O)Cc1ccccn1)C[C@@H](C)[C@H](OC)CN(C)C2=O,-4,4
COc1ccc(NC(=O)N(C)C[C@@H]2Oc3ccc(NC(=O)NC4CCCCC4)cc3CC(=O)N([C@H](C)CO)C[C@@H]2C)cc1,12,11
C[C@H](CO)N1C[C@H](C)[C@@H](CN(C)Cc2ccc(-c3ccccc3)cc2)Oc2cc(C#C[C@@H](C)O)ccc2S1(=O)=O,u,x
C[C@H](CO)N1C[C@H](C)[C@H](CN(C)C(=O)NC2CCCC2)Oc2ncc(-c3ccccc3)cc2C1=O,9&-2,3&-4
C[C@H](CO)N1C[C@H](C)[C@H](CN(C)S(C)(=O)=O)Oc2c(NC(=O)c3ccc(-c4nccs4)cc3)cccc2C1=O,21,8
CC(C)NC(=O)Nc1ccc2c(c1)C(=O)N([C@H](C)CO)C[C@@H](C)[C@@H](CN(C)CC1CCCCC1)OCCCC[C@@H](C)O2,-21,-19
C[C@H](CO)N1C[C@H](C)[C@@H](CN(C)C(=O)NC2CCCCC2)Oc2ccc(NC(=O)CCN3CCOCC3)cc2CC1=O,19,12
OC[C@@H]1[C@@H](c2ccc(-c3ccccc3)cc2)[C@H]2CN(Cc3cncnc3)CCCCN12,7,-5
COc1ccc2c3c([nH]c2c1)[C@H](CO)N(C(=O)c1cccc(F)c1)CC31CCN(C(=O)c2ccccc2)CC1,1,-5
CCCNC(=O)[C@H]1[C@H](CO)[C@H]2Cn3c(ccc(-c4ccc(F)cc4)c3=O)[C@H]2N1C,6,2
COc1cccc(CN2C[C@@H]3N[C@H](C2)C3c2ccc(-c3ccccc3F)cc2)c1 (stereo partly drawn),u,x
C[C@@H]1CN([C@@H](C)CO)C(=O)c2cc(C3=CCCCC3)cnc2O[C@H]1CN(C)C(=O)c1ccccc1,-1,-8
COc1cccc(S(=O)(=O)N2C[C@@H](O)COC[C@H]3O[C@H](CC(=O)NCCCN4CCOCC4)CC[C@@H]32)c1,-3,14
CCNC(=O)C[C@@H]1CC[C@@H]2[C@H](COC[C@H](O)CN2C(=O)Nc2ccc(C(F)(F)F)cc2)O1,-7,-7
CS(=O)(=O)Nc1ccc2c(c1)[C@@H]1C[C@@H](CC(=O)NCc3ccc(Cl)cc3)O[C@@H](CO)[C@@H]1O2,-11,-8
Cc1noc(C)c1NC(=O)N(C)C[C@H]1OCCCC[C@@H](C)Oc2ccc(NC(=O)Nc3ccc(F)cc3)cc2C(=O)N([C@@H](C)CO)C[C@H]1C,12,7
O=C(NCC[C@@H]1CC[C@H](NC(=O)Nc2cc(F)ccc2F)[C@H](CO)O1)Nc1ccc(Cl)cc1,-6,-4
C[C@@H]1CN([C@H](C)CO)C(=O)c2cc(NC(=O)Nc3ccc(F)cc3)ccc2O[C@H]1CN(C)Cc1ccc(C(F)(F)F)cc1,u,x
CN1C(=O)c2cc(NS(=O)(=O)c3ccc(Cl)cc3)ccc2OC[C@H]2O[C@@H](CC(=O)N3CCc4ccccc4C3)CC[C@@H]21,u,x
CCC(=O)N(C)C[C@@H]1Oc2ncc(C#Cc3ccccc3OC)cc2C(=O)N([C@H](C)CO)C[C@@H]1C,-2,-6
CCN(C[C@H]1N[C@H](CO)[C@@H]1c1ccc(-c2ccc(F)cc2)cc1)C(=O)COC,u,x
C[C@@H]1CCCCO[C@@H](CN(C)S(=O)(=O)c2ccc(F)cc2)[C@@H](C)CN([C@H](C)CO)C(=O)c2cc(NC(=O)CCCN(C)C)ccc2O1,10,-8
O=C(NCC[C@H]1CC[C@@H](NS(=O)(=O)Cc2ccccc2)[C@@H](CO)O1)C1CCCCC1,1,-1
CC=Cc1ccc2n(c1=O)C[C@H]1[C@H](CO)[C@@H](C(=O)NCc3ccccc3F)N(S(C)(=O)=O)[C@@H]21 (mixture of isomers),19,21
C/C=C/c1ccc2c(c1)O[C@H](CN(C)C(=O)Nc1ccc(F)cc1)[C@@H](C)CN([C@@H](C)CO)S2(=O)=O,-29,-22
Cc1ccc(S(=O)(=O)N[C@@H]2C=C[C@@H](CC(=O)NCCN3CCCCC3)O[C@H]2CO)cc1,13,11
CNC[C@@H]1Oc2ccc(NC(=O)Cc3ccccc3)cc2C(=O)N([C@H](C)CO)C[C@H]1C,0,-3
